# High-throughput results deposited in PubChem by National Center for Advancing Translational Sciences (NCATS).
# StopGo FLuc – lowers the firefly signal of an FMDV 2A StopGo reporter. HEK cells with a luciferase reporter of 2A StopGo recoding. Potency, µM (series often up to 57.5 µM), without a hit: at the top dose signal change, negative = less light. hit rate 0.23% among 120,000. AID 1745856; active = well fitted falling curve with a large enough effect; inconclusive = small, poorly fitted or top-dose-only effect; inactive = no such curve, though single readings can be large or run the other way; further: nearly all actives have a fitted effect of over 60% in size; overnight with compound
# 2A Renilla – lowers the Renilla signal of an FMDV 2A StopGo reporter; HEK cells with a luciferase reporter of 2A StopGo recoding; Potency, µM (highest dose often 57.5 µM), without a hit: top-dose signal change, negative = less light; hit rate 0.32% among 120,000; AID 1745857; active means well fitted falling curve with a large enough effect; inconclusive means small, poorly fitted or top-dose-only effect; inactive means no such curve, though single readings can be large or run the other way; further: nearly all actives have a fitted effect of over 55% in size; overnight with compound
# * marks the source's active call; other numbers are inactive results; ? = inconclusive; [ ] = remark or other dose. On the % scale 0 is the no-effect control and ±100 the full control effect; potency means the concentration at half of the fitted maximal effect.
1. CC(Oc1ccc(Cl)cc1Cl)C(=O)Nc1ccnn1C(C)C (stereo not drawn)
2. CCCCCn1c(Br)nc2c1c(=O)n(C)c(=O)n2C
3. O=C(Nc1ccc(F)cc1)c1ccc(N2C(=O)CCS2(=O)=O)cc1Cl
4. CC(C)CN1CCn2c(nc3cc(C(=O)NC(C)C)ccc32)C1
5. O=c1oc2ccc(Br)cc2cc1S(=O)(=O)c1ccccc1F
6. CC(C)=CC(=O)Nc1ccc(CC(=O)N2CCOCC2)cc1
7. COc1ccc2cnn(CC(=O)Nc3ccc(Oc4ccccc4)cc3)c(=O)c2c1OC
8. COCCCn1c(-c2ccc(O)c(OC)c2)nc2c1c(=O)[nH]c(=O)n2CC(C)C

compound no. | 1 | 2 | 3 | 4 | 5 | 6 | 7 | 8
StopGo FLuc | 0% | 7% | 11% | 7% | -10% | 20% | 10% | -8%
2A Renilla | 3% | -4% | -15% | -4% | -9% | 12% | -14% | -4%

9. Cc1cc(C)nc(CC#N)n1
10. CCCCOC(=O)c1c(C)oc2c1cc(NS(=O)(=O)c1cc(OC)ccc1OC)c1ccccc12
11. Cc1ccccc1-c1nc(C#N)c(NCC2CCCO2)o1 (stereo not drawn)
12. CCNC(=O)NC(=O)CSc1cc(C)c2ccccc2n1
13. CCC(C(=O)NCc1ccc2c(c1)CCN2C(=O)c1ccc(F)cc1)c1ccccc1 (stereo not drawn)
14. Cc1oc(-c2ccccc2)nc1C(=O)NCC(C)(C)N1CCOCC1
15. COc1cccc2sc(NC(=O)c3ccc(S(=O)(=O)N4CCC(C)CC4)cc3)nc12
16. CCC1(C)Cc2c(sc3nnn(CC(=O)Nc4ccccc4)c(=O)c23)CO1 (stereo not drawn)

compound no. | 9 | 10 | 11 | 12 | 13 | 14 | 15 | 16
StopGo FLuc | -3% | -10% | -48% | 5% | -16% | -3% | -30% | -2%
2A Renilla | 1% | 35%[activator] | ? | -1% | -8% | -16% | -24% | -6%

17. Cc1ccc(NC(=O)c2cnc(SCC(=O)N3CCCc4ccccc43)n(C)c2=O)cc1C
18. CC(C)(C)C(=O)N(Cc1ccc2cc[nH]c2c1)C1CC1
19. C=C(C)Cn1c(N2CCOCC2)nc2c1c(=O)n(C)c(=O)n2C
20. CCOC(=O)c1cnc2c(Cl)c(Cl)ccc2c1NCC(C)O (stereo not drawn)
21. O=C(CN1C(=O)CCc2cc(S(=O)(=O)N3CCOCC3)ccc21)NCc1ccc(Cl)cc1
22. CC(Cc1cccs1)N(Cc1ccccc1)C(=O)c1cccc(S(=O)(=O)N2CCCC2)c1 (stereo not drawn)
23. N#CCCn1c(SCC(=O)Nc2ccc(N3CCCCC3)cc2)nc2ccccc21
24. COc1ccc(CCNC(=O)CCc2c(C)nc3cc(-c4cccc(F)c4)nn3c2C)cc1OC

compound no. | 17 | 18 | 19 | 20 | 21 | 22 | 23 | 24
StopGo FLuc | -20% | 2% | 7% | 6% | -10% | ? | 37%[activator] | 8%
2A Renilla | -6% | -5% | 2% | 6% | 4% | 27% | -9% | 443%[activator]

25. Cc1ccc(CN2CCCn3nc(C(=O)NCCN(C)C)cc3C2=O)cc1
26. CCOC(=O)c1ccc(NC(=O)Cn2cc(C(=O)c3ccc(CC)cc3)c(=O)c3ccc(C)nc32)cc1
27. O=S(=O)(c1ccccc1)n1nc(-c2ccccc2)nc1NCc1ccc(Cl)cc1
28. CCC(C)NC(=O)Cn1cnc2sc(C)c(S(=O)(=O)N3CCN(c4ccccc4OC)CC3)c2c1=O (stereo not drawn)
29. CCOc1ccc(Nc2nc(-c3ccc(C)c(C)c3)cs2)cc1
30. CCOC(=O)CNC(=O)c1cc(OCC)c(OCC)c(OCC)c1
31. Cc1ccc(C2CC(c3ccccc3)=NN2c2nc(C)cs2)cc1 (stereo not drawn)
32. CC(C)N(Cc1ccccc1)C(=O)COC(=O)c1cc(Cl)ccc1Cl

compound no. | 25 | 26 | 27 | 28 | 29 | 30 | 31 | 32
StopGo FLuc | 0% | -5% | 28% | -14% | 160%[activator] | 0% | 42%[activator] | 8%
2A Renilla | 9% | -2% | 160%[activator] | 2% | -7% | 10% | 9% | 14%

33. C=CCN1[C@@H](C)COc2cc(N3CCCC3)ccc2S1(=O)=O
34. Cc1ccc(S(=O)(=O)NCCc2ccc(S(N)(=O)=O)cc2)c(C)c1
35. O=C(NCCCOC1CCCCC1)C1CCCO1 (stereo not drawn)
36. O=C(NCc1ccc(OCC(F)(F)F)cc1)C1CCN(c2nc3ccccc3o2)CC1
37. CON(C)C(=O)CC1Sc2ccc(Cl)cc2NC1=O (stereo not drawn)
38. CCOC(=O)c1ccc(NC(=O)N2CCN(Cc3nc(-c4ccc(C)cc4)oc3C)CC2)cc1
39. COc1cc(NC(=O)c2ccccc2)c(OC)cc1NC(=O)CCc1ccc(-c2ccccc2)o1
40. Cc1ccc(C)c(CN2C(=O)c3ccccc3S(=O)(=O)c3ccc(C(=O)N4CCN(Cc5ccccc5)CC4)cc32)c1

compound no. | 33 | 34 | 35 | 36 | 37 | 38 | 39 | 40
StopGo FLuc | ? | 3% | 0% | ? | 0% | 8% | 0% | -7%
2A Renilla | ? | 206%[activator] | 11% | ? | 0% | -6% | -4% | -1%

41. O=C(NCc1ccncc1)c1cc(=O)c2ccccc2o1
42. Cc1ccc(S(=O)(=O)CCC(=O)Nc2ccc(Br)cc2C)cc1
43. O=C(O)C1C2C=CC(O2)C1C(=O)Nc1cc(C(F)(F)F)ccc1Cl (stereo not drawn)
44. CCCCn1c(N2CCN(CCc3ccccc3)CC2)nc2c1c(=O)[nH]c(=O)n2C
45. COc1cc(OC)c(NC(=O)c2ncoc2-c2ccc(C)o2)cc1Cl
46. CCOc1ccc(-n2c(SCc3ccccc3)nc3c([nH]c4ccccc43)c2=O)cc1
47. Cc1ccc2nc(-c3ccncc3)c(Nc3ccccc3C)n2c1
48. CCOC(=O)C1=CN(c2ccc(OCC)cc2)C=C(C(=O)OCC)C1c1ccc(SC)cc1

compound no. | 41 | 42 | 43 | 44 | 45 | 46 | 47 | 48
StopGo FLuc | -3% | -25% | -4% | 3% | 6% | -16% | -28% | -22%
2A Renilla | -2% | -17% | -11% | -11% | 0% | -20% | -16% | 4%

49. COc1ccc(Oc2coc3cc(O)ccc3c2=O)cc1
50. Cc1c(-c2ccccc2)oc2c(C(=O)Nc3ccc(N4CCN(C)CC4)cc3)cccc2c1=O
51. O=C(CCc1ncc(-c2ccc(F)cc2)o1)N1CCc2ccccc21
52. CNC(C)c1ccc2ccccc2c1 (stereo not drawn)
53. Cc1nn(C)c2c1c(C(F)(F)F)cc(=O)n2C(C)C(=O)NCc1ccccc1 (stereo not drawn)
54. CC(C)CNC(=O)COC(=O)c1ccc2ccccc2n1
55. CCOC(=O)CC(NC(=O)Cn1nnc(-c2ccccc2Cl)n1)c1ccc(OC)cc1 (stereo not drawn)
56. CCCCn1cnc2c1c(=O)n(CC(=O)Nc1cccc(Cl)c1)c(=O)n2CCCC

compound no. | 49 | 50 | 51 | 52 | 53 | 54 | 55 | 56
StopGo FLuc | 172%[activator] | 16% | 42%[activator] | -1% | -3% | -10% | 0% | -17%
2A Renilla | 46%[activator] | 2% | -4% | -3% | 1% | -11% | 22% | 14%

57. O=C(NCc1ccccc1Cl)c1ccc2nc(Cc3ccccc3)oc2c1
58. O=C(c1ccccc1)C(Cl)C(c1ccccc1)C1(Cl)CCCCC1=O (stereo not drawn)
59. O=C(CCSCc1cnn(-c2ccccc2)c1-n1cccc1)NCc1ccccc1Cl
60. Oc1c(Cl)cc(Cl)cc1C=Nc1cccc2ccccc12
61. CCCC1=Nc2cc(C(=O)N3CCC(C)CC3)ccc2Sc2ccc(C)cc21
62. CCCNc1nc2ccccc2nc1C(=O)Nc1cccc(C)c1C
63. Cn1c(=O)c2c(nc(SCC(=O)Nc3ccc(F)cc3F)n2Cc2ccccc2)n(C)c1=O
64. CCCCc1cc(=O)oc2cc(C)cc(OCC(=O)NCCN3CCOCC3)c12

compound no. | 57 | 58 | 59 | 60 | 61 | 62 | 63 | 64
StopGo FLuc | -8% | 0% | -18% | 0% | 13% | -6% | -4% | 2%
2A Renilla | 34%[activator] | 135%[activator] | 8% | -2% | -5% | 6% | -14% | 3%

# Compound profiles (already shown).
# CC(C)=CC(=O)Nc1ccc(CC(=O)N2CCOCC2)cc1 is entered as StopGo FLuc: 20%; 2A Renilla: 12%
# CCCCOC(=O)c1c(C)oc2c1cc(NS(=O)(=O)c1cc(OC)ccc1OC)c1ccccc12 is entered as StopGo FLuc: -10%; 2A Renilla: 35%[activator]
# CCC(C(=O)NCc1ccc2c(c1)CCN2C(=O)c1ccc(F)cc1)c1ccccc1 (stereo not drawn) is entered as StopGo FLuc: -16%; 2A Renilla: -8%

# Carrying on:
65. CCNc1nc2c(c(=O)n(C)c(=O)n2C)n1Cc1ccc(F)cc1
66. CCOC(=O)c1sc(N2C(=O)c3oc4cc(C)c(C)cc4c(=O)c3C2c2cccc(O)c2)nc1C (stereo not drawn)
67. CCc1sc(C(=O)NC(C)C)cc1C
68. COc1cc(C(=O)Nc2cccc(-c3nc4ccccc4o3)c2)cc(OC)c1OC
69. O=C1COc2ccc(C(=O)COC(=O)c3ccccc3F)cc2N1
70. COC(=O)c1ccccc1-c1ccc(C=C(C#N)C#N)o1
71. CCn1nc(C)c2c(-c3ccccc3)cc(=O)n(C(C)C(=O)NCc3ccc(C)cc3)c21 (stereo not drawn)
72. COc1ccc(CCC(=O)Oc2ccc3ccc(OC)cc3c2)cc1

compound no. | 65 | 66 | 67 | 68 | 69 | 70 | 71 | 72
StopGo FLuc | ? | -3% | 17% | 9% | 7% | 21% | -4% | -10%
2A Renilla | ? | -7% | 4% | 0% | -14% | -6% | 5% | -8%

73. CC(C)(C)C(C)(O)C#CCN1CCCC1 (stereo not drawn)
74. CCCCCCCCCCCC(=O)N/N=C/C(C)=C/c1ccc(C(C)(C)C)cc1
75. CC1CCn2c(nc3cc(C(=O)NCc4ccc(F)cc4)ccc32)C1 (stereo not drawn)
76. COc1ccccc1CNc1ccccc1C(=O)O
77. CC(C)c1cc2c(cc1S(=O)(=O)O)[C@@]1(C)CCC[C@@](C)(C(=O)O)[C@@H]1CC2
78. Cn1c(=O)[nH]c(=O)c2c1nc(N1CCN(Cc3ccc(F)cc3)CC1)n2C/C=C/c1ccccc1
79. Fc1ccccc1Nc1c2c(nc3ccccc13)CCC2
80. COc1ccc(OC)c(NC(=O)Cc2c(C)n(C(=O)c3ccc(Cl)cc3)c3ccc(OC)cc23)c1

compound no. | 73 | 74 | 75 | 76 | 77 | 78 | 79 | 80
StopGo FLuc | 0% | 4% | 30%[activator] | -5% | -9%[11.5 µM] | 6% | 72%[activator] | -9%
2A Renilla | 3% | 3% | 9% | -4% | ? | 0% | 30% | -17%

81. C=C(CC)C(=O)c1ccc(OCC(=O)O)c(Cl)c1Cl
82. CC1Cc2cc(S(=O)(=O)NCc3ccccc3Cl)ccc2N1C(=O)C1CCC1 (stereo not drawn)
83. Cc1ccccc1CNC(=O)CCC(=O)N1CCSc2ccccc21
84. COC(=O)c1scc(-c2ccc(C)cc2)c1S(=O)(=O)N1CCN(c2ccccc2)CC1
85. CCOc1ccc(S(=O)(=O)N2CCN(C(C(=O)O)c3c[nH]c4ccc(Cl)cc34)CC2)cc1 (stereo not drawn)
86. O=C(CCc1nc(CSc2nc3ccccc3o2)no1)Nc1ccc2ccccc2c1
87. Cc1csc(/C(C#N)=C\NC2CC(C)(C)NC(C)(C)C2)n1
88. CC(C)NC(=O)/C=C/c1ccc(F)cc1

compound no. | 81 | 82 | 83 | 84 | 85 | 86 | 87 | 88
StopGo FLuc | -14%[11.5 µM] | ? | 20% | 4% | -1% | 127%[activator] | -9% | 93%[activator]
2A Renilla | -26% | -3% | -6% | 118%[activator] | -10% | 11% | -2% | -3%

# 6 entries drawn at random from the list so far, as already listed:
88. CC(C)NC(=O)/C=C/c1ccc(F)cc1
82. CC1Cc2cc(S(=O)(=O)NCc3ccccc3Cl)ccc2N1C(=O)C1CCC1 (stereo not drawn)
81. C=C(CC)C(=O)c1ccc(OCC(=O)O)c(Cl)c1Cl
86. O=C(CCc1nc(CSc2nc3ccccc3o2)no1)Nc1ccc2ccccc2c1
83. Cc1ccccc1CNC(=O)CCC(=O)N1CCSc2ccccc21
85. CCOc1ccc(S(=O)(=O)N2CCN(C(C(=O)O)c3c[nH]c4ccc(Cl)cc34)CC2)cc1 (stereo not drawn)

compound no. | 88 | 82 | 81 | 86 | 83 | 85
StopGo FLuc | 93%[activator] | ? | -14%[11.5 µM] | 127%[activator] | 20% | -1%
2A Renilla | -3% | -3% | -26% | 11% | -6% | -10%
